Bioassay records deposited in PubChem by ICCB-Longwood Screening Facility, Harvard Medical School.
Anaer choline gr: blocks anaerobic gram-negative growth on choline | hit rate 0.2% among 55,000 | calls only | Gram-negative bacterium anaerobic choline minimal medium, absorbance growth; active compounds read low; many inactives read as strong as hits in the columns shown;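 active = growth z-score on choline under -2 at 7 or 20 h with little or no fall on glycerol, limits in tiers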;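 also: stock transfer was 300 nL into about 50 µL; the organism is E. coli; final concentration not given here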
Anaer choline gr early: further read-out of Anaer choline gr, marked with its call; z-score; measured here: choline growth z-score, timepoint 1;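 score of optical density at 7 h as mean of two plates; lower means less growth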
The depositor's hits bear a star; i = inactive; & = joins results of further samples. A portion of the library (hit frequency here may not be typical).

Structure | Anaer choline gr early | Anaer choline gr
COc1cccc(C(=O)Nc2ccccc2-c2nc(-c3ccccc3)no2)c1 | 0.24 | i
Cc1nc(-c2ccc3c(c2)CCN3C(=O)Cc2ccc(F)cc2)no1 | 1.1 | i
CC(C)Sc1cc2c(cc1NC(=O)COc1ccc(Cl)cc1)n(C)c(=O)n2C | -1.4 | i
CCOC(=O)c1nc(NCCC2=CCCCC2)c2c(C)noc2n1 | -1.9 | i
COc1cccc(S(=O)(=O)Nc2cc3[nH]c(=O)[nH]c3cc2Cl)c1 | -1.1 | i
O=C(CN1C(=O)C2CCCC2=Nc2ccccc21)Nc1ccccc1Br (stereo unspecified) | 0.35 | i
COCCNC(=O)c1ccc(Cn2c(SCc3cccc(OC)c3)nc3ccncc32)cc1 | 0.08 | i
CCN(CC)CCn1c(C)c(C)c2c1ncn1nc(-c3ccncc3)nc21 | 0.51 | i
COc1cc(OC)c(NC(=O)Cn2c(C)cc(C)c(S(=O)(=O)c3ccc(C)cc3)c2=O)cc1Cl | 0.95 | i
COc1c(O)c2c(=O)cc(OC)c3c4c(OC)cc(=O)c5c(O)c(OC)c(C[C@@H](C)OC(=O)c6ccccc6)c(c(c1C[C@@H](C)OC(=O)Oc1ccc(O)cc1)c23)c54 | 0.53 | i
CCc1ccc(NS(=O)(=O)c2cc(-c3cc(C(F)(F)F)on3)sc2C)cc1 | 1.1 | i
O=S(=O)(c1ccccc1)N1CCCN(c2nc3cccnc3s2)CC1 | 0.08 | i
C=CCn1c(SCC(=O)Nc2ccc(C)cc2)nc2sc(CC)cc2c1=O | 1.2 | i
CC(C)c1cc(C(=O)N2CCc3ccccc32)nn1C1CCS(=O)(=O)C1 (stereo unspecified) | -1.8 | i
O=c1n(Cc2ccc(F)cc2)nc2c(S(=O)(=O)N3CCCCCC3)cccn12 | 1.7 | i
O=C(Nc1ccccc1Br)N1CCN(c2ccc(=O)n(-c3ccccc3)n2)CC1 | 0.49 | i
O=C(O)C1=CCNCC1 | 0.59&-0.11 | i
CC1CCN(c2nc3c(c(=O)n(Cc4ccccc4Cl)c(=O)n3C)n2C)CC1 | 0.04 | i
CC(=O)Nc1ccc2nc(N3CCC(C(=O)NC4CC4)CC3)cc(C)c2c1 | -0.86 | i
O=C1NC(=O)/C(=C/c2ccc3c(c2)OC(F)(F)O3)S1 | 0.48 | i
O=C(Nc1ccc(F)cc1)N1CCC(n2cnc3ccccc3c2=O)CC1 | -0.95 | i
Cc1nc(C)c(-c2ccc(SCC(=O)NC3CCCC3)nn2)s1 | 0.69 | i
Cc1ccc2cc3c(nc2c1)N(C(=O)c1cccc(Br)c1)CC3 | 0.64 | i
Cc1ccc(OCC(=O)Nc2ncn(Cc3ccc(Cl)cc3)n2)c(C)c1 | 0.57 | i

Entries of single compounds, looked up by structure. Order of values: Anaer choline gr early	Anaer choline gr
`O=C(Nc1ccc(F)cc1)N1CCC(n2cnc3ccccc3c2=O)CC1` is listed with -0.95	i
`COc1cccc(C(=O)Nc2ccccc2-c2nc(-c3ccccc3)no2)c1` is listed with 0.24	i
`COc1c(O)c2c(=O)cc(OC)c3c4c(OC)cc(=O)c5c(O)c(OC)c(C[C@@H](C)OC(=O)c6ccccc6)c(c(c1C[C@@H](C)OC(=O)Oc1ccc(O)cc1)c23)c54` is listed with 0.53	i
`Cc1ccc(OCC(=O)Nc2ncn(Cc3ccc(Cl)cc3)n2)c(C)c1` is listed with 0.57	i

Remaining list, next part
Structure | Anaer choline gr early | Anaer choline gr
Cc1nn(-c2nc3ccccc3[nH]2)c2c1C(c1cccc(F)c1)CC(=O)N2 (stereo unspecified) | -0.85 | i
O=C(NCc1ccccc1)c1ccc2c(c1)N(Cc1ccccc1)C(=O)CS2=O (stereo unspecified) | 0.62 | i
Cc1nnc2sc(-c3cccs3)nn2c1=O | -0.61 | i
O=C(NC1CCCC1)c1nn(-c2ccccc2)c2ccccc12 | 1.1 | i
CCCSc1nc2c(c(=O)[nH]1)C(c1ccc(O)c(O)c1)CC(=O)N2 (stereo unspecified) | -0.71 | i
COc1ccc(S(=O)(=O)NC2CCN(C(=O)c3cccc(C)c3)CC2)cc1 | -0.44 | i
COc1ccc(-c2noc(N3CCC(C(=O)Nc4ccc(C)cc4)CC3)n2)cc1 | -0.53 | i
O=C(NC1CC1)c1n[nH]c2c1CCCC2 | -1.1 | i
Cc1nn(-c2ccccc2)c(C)c1CCc1nn2c(-c3ccccc3F)nnc2s1 | 1.3 | i
CCc1ccc2ncc3c(-c4ccc(C)cc4)n[nH]c3c2c1 | 0.83 | i
Cn1cc(C(=O)Nc2ccc(F)c(F)c2)c2[nH]c(=O)n(-c3ccc(Cl)cc3)c(=O)c21 | 0.72 | i
CCn1c(=O)c(-c2noc(C(=O)N3CCN(C)CC3)n2)nn(-c2ccccc2)c1=O | -0.24 | i
Cc1ccc2oc(C(=O)Nc3ccc(S(N)(=O)=O)cc3)cc(=O)c2c1 | -0.2 | i
COCCCNC(=O)c1nnc2ccc(-c3ccccc3)nn12 | -0.5 | i
CCOc1ccccc1OC(=O)c1cc2c(C)nn(-c3cccc(F)c3)c2s1 | 2 | i
CCCCN(C)C(=O)CN(C)S(=O)(=O)c1cc2c(cc1C)NC(=O)CO2 | -0.52 | i
O=C1CCCc2cc(S(=O)(=O)N3CCC(C(=O)Nc4cccc(Cl)c4)CC3)ccc2N1 | 0.92 | i
Fc1ccc(-c2nnc(-c3nc(N4CCN(c5ccccn5)CC4)c4ccccc4n3)o2)cc1 | 1.9 | i
CC(c1nnc(SCC(=O)Nc2ccc3c(c2)OCO3)n1C)N1C(=O)COc2ccccc21 (stereo unspecified) | -0.04 | i
Cc1cccc(-c2nc3ccccc3c3nnc(SCC(=O)NC4CC4)n23)c1 | -0.49 | i
COc1cc(OC)cc(-c2noc(CSc3ccc(-c4ccc5c(c4)OCO5)nn3)n2)c1 | 0.49 | i
CC(C)n1cnc2nc(COc3ccc(Cl)cc3NC(=O)Nc3cccc(F)c3)cc(=O)n21 | -0.57 | i
O=C(Nc1cccc(Br)c1)n1ncc2cc(Cl)ccc21 | -0.69 | i
Cc1c(S(=O)(=O)N2CCCC2)c(C)n(C)c1-c1nnc(C2CCC2)o1 | 0.67 | i
CCOc1ccc(OC(=O)C2CCN(c3nc4ccccc4[nH]3)CC2)cc1 | -0.58 | i
COc1cc(CN2CCCC2c2ccc(Cl)cc2)cc(OC)c1 (stereo unspecified) | 0.13 | i
Cc1cc(N2CCN(c3ccccc3)CC2)n2nc(-c3cccnc3)nc2n1 | 0.43 | i
O=C(Nc1cccc(F)c1)N1CCN(Cc2cc(=O)n3nc(-c4ccccc4)sc3n2)CC1 | -0.73 | i
COc1ccc(-c2nonc2NC(=O)COc2ccc(C(C)(C)C)cc2)cc1C | -0.37 | i
COc1cccc(NC(=O)C2CCCN(c3nc4cccnc4n(Cc4ccccc4)c3=O)C2)c1 (stereo unspecified) | 0.52 | i
O=C(NCCC1=CCCCC1)c1nnc(-c2ccc(S(=O)(=O)N3CCCC3)cc2)o1 | -0.67 | i
Cc1cc(C)c2oc(C(=O)N3CCN(C)CC3)cc(=O)c2c1 | 1.3 | i
O=S(=O)(c1cccs1)N1CCC2(CC1)NCCN=C2NCc1ccccc1F | -0.26 | i
CCn1c(CCc2ccc(NS(=O)(=O)c3cc(F)ccc3F)cc2)nc2ccccc21 | 0.63 | i
CC(C)c1cc(N(C)C2CCCCC2)n2nc(-c3cccnc3)nc2n1 | -1.2 | i
CN(C1CCCCC1)S(=O)(=O)c1ccc2c(c1)CCN2C(=O)CCC(=O)N1CCOCC1 | -0.77 | i
CCOc1ccc(S(=O)(=O)c2cn(CC(=O)Nc3ccc(F)cc3)c3ccc(F)cc3c2=O)cc1 | -0.94 | i
Cc1ccc2c(c1)Oc1cc(Cl)c(S(=O)(=O)N3CCCC3)cc1C(=O)N2 | 0.83 | i
CCOc1ccc(NC(=O)Cn2cnc3c(nc4n3CCCCC4)c2=O)cc1 | -0.09 | i
NC(=O)c1c(NC(=O)C2CCCN(C(=O)c3ccc4c(c3)OCCO4)C2)sc2c1CCCC2 (stereo unspecified) | 0.46 | i
Cc1ccc(C)c(NC(=O)CCc2c(C)n(C)c3cc(-c4ccccc4C)nn3c2=O)c1 | -0.24 | i
Cc1cc(SCC(=O)NC(C)c2ccccc2)n2ncc(-c3ccc(F)cc3)c2n1 (stereo unspecified) | -0.29 | i
CCCCN1CCCCC1C(=O)Nc1c(C)cccc1C (stereo unspecified) | 0.83&0.77&0.02&-1.4 | i
O=c1c(S(=O)(=O)c2ccc(F)cc2)c[nH]c2c(F)ccc(Cl)c12 | -0.7 | i
CC1(C)[C@H](C(=O)O)N2C(=O)C[C@H]2S1(=O)=O | 0.45&-1&0.57&0 | i
CCc1nc(CN2C(=O)COc3ccc(S(=O)(=O)N4CCC(C)CC4)cc32)no1 | -0.85 | i
Cc1ccc(C)c(N2CCN(CCCNC(=O)c3csc(-c4ccncc4)n3)CC2)c1 | -0.35 | i
CN(C)c1ccc(C(CNS(=O)(=O)c2ccc3c(c2)OCCO3)N2CCOCC2)cc1 (stereo unspecified) | 0.02 | i
CC(CCc1ccccc1)NC(=O)c1ccc(-n2nc(OCc3cccc(F)c3)ccc2=O)cc1 (stereo unspecified) | -0.87 | i
O=C(CN1c2ccc(Br)cc2-c2ccccc2S1(=O)=O)Nc1cccnc1 | -0.67 | i
N=C1C(c2nc3ccccc3s2)=C(O)CN1CCc1ccc(S(N)(=O)=O)cc1 | 0.94 | i
Cc1noc(C(=O)N2CCc3ccccc3C2)c1Cl | -0.98 | i
Cc1cc2nc(C(F)(F)F)c(=O)n(CC(=O)NCC3CCCO3)c2cc1C (stereo unspecified) | 0.9 | i
Cc1ccc(-n2c(=O)c3c(cnn3C)n(Cc3cc(C)ccc3C)c2=O)cc1 | 0.17 | i
O=c1c2cn(Cc3ccccc3)c3ccccc3c-2nn1Cc1cccc(F)c1 | -1.6 | i
CC(=O)N1CCC(C(=O)NCc2ccccc2)(N(Cc2ccccc2)C(=O)c2ccc(C)cc2)CC1 | -0.39 | i

Filtered by structure, the entries above containing a CF3 group.
Structure | Anaer choline gr early | Anaer choline gr
CCc1ccc(NS(=O)(=O)c2cc(-c3cc(C(F)(F)F)on3)sc2C)cc1 | 1.1 | i
Cc1cc2nc(C(F)(F)F)c(=O)n(CC(=O)NCC3CCCO3)c2cc1C (stereo unspecified) | 0.9 | i

The listing continues.
Structure | Anaer choline gr early | Anaer choline gr
Cc1nn(-c2ccccc2)c2sc(C(=O)Oc3cccc(F)c3)cc12 | 1.3 | i
Cn1cc(C(CNC(=O)Nc2ccccc2Cl)c2cccnc2)c2ccccc21 (stereo unspecified) | -1.5 | i
CCCCC(=O)Nc1nnc(S(=O)(=O)N2CCC(C)CC2)s1 | 0.51 | i
COCCNC(=O)c1ccc2c(c1)N(Cc1ccc(Cl)cc1)CCS2 | 0.01 | i
CC(=O)Nc1ccccc1-c1nc2ccccc2n(C(C)C(=O)Nc2cccc(C)c2C)c1=O (stereo unspecified) | 0.94 | i
CCCn1c(=O)c2ccccc2n2c(SCC(=O)Nc3ccccc3OC)nnc12 | 3 | i
CCOc1ccc(Nc2nc(N)c(C(=O)c3ccc(Cl)cc3)s2)cc1 | 1.2 | i
CC(C)c1cc(C2CCCN2Cc2ccc(Cl)cc2)no1 (stereo unspecified) | 0.54 | i
O=C(O)c1cn(-c2ccc(F)cc2)c2cc(N3CCNCC3)c(F)cc2c1=O | -2.5&-2.5 | i
CN(C)S(=O)(=O)c1ccc2c(c1)c(C(N)=O)cn2C | -0.92 | i
O=C(O)c1ccc(-n2ncc(N3CCCCC3)c(Cl)c2=O)cc1 | 0.96 | i
Cc1nc2ccccc2c(=O)n1Cc1noc(CNC(=O)c2ccccc2)n1 | 0.13 | i
CCOC(=O)C1CCN(C(=O)Cn2cccc2C(=O)c2ccccc2)CC1 | -1.1 | i
COc1ccc(OC)c(NC(=O)C2CCCN2S(=O)(=O)c2cc3c(cc2C)NC(=O)C(C)O3)c1 (stereo unspecified) | -1.4 | i
CCn1cc(-c2nc(-c3ccncc3)no2)c(=O)c2cc(F)c(N3CCC(C)CC3)cc21 | -0.77 | i
Cc1ccc(NC(=O)Cn2cnc3ccc(S(=O)(=O)N4CCC(C)CC4)cc3c2=O)cc1F | -1 | i
Cc1noc(C2CCCCN2Cc2ccccc2)n1 (stereo unspecified) | -0.43 | i
CC[C@H]1OC(=O)C[C@@H](O)[C@H](C)[C@@H](O[C@@H]2O[C@H](C)[C@@H](O[C@H]3CC(C)(O)[C@@H](O)[C@H](C)O3)[C@H](N(C)C)[C@H]2O)[C@@H](CC=O)C[C@@H](C)C(=O)/C=C/C(C)=C/[C@@H]1CO[C@@H]1O[C@H](C)[C@@H](O)[C@@H](OC)[C@H]1OC (stereo partly specified) | -2.4 | i
O=C(c1cc2n(n1)CCCN(Cc1ccccc1)C2=O)N1CCN(c2ccccc2)CC1 | 0.59 | i
CC(NC(CCc1ccccc1)C(=O)O)C(=O)N1CCCC1C(=O)O (stereo unspecified) | 0.68&0.71 | i
Cc1cc(Nc2cccc3nsnc23)n2ncnc2n1 | -0.03 | i
CC1=C(C(=O)NCc2ccccc2Cl)C2(CCN(S(C)(=O)=O)CC2)OC1=O | -0.06 | i
Cc1nn(-c2ccccc2)c(N2CCC(C(=O)N3CCOCC3)CC2)c1-n1c(C)ccc1C | 0.45 | i
CCOc1c(NCc2ccc(Cl)cc2)c(=O)c1=O | -1 | i
Cc1nn(-c2ccc(F)cc2)c2sc(C(=O)Nc3ccc(Br)cc3F)cc12 | -0.2 | i
O=C(c1ccc2cccc(O)c2n1)N1CCC(c2ccccc2)C1 (stereo unspecified) | -1.6 | i
CCNC(=O)Cn1c(CO)cnc1SCC(=O)N1CCc2ccccc21 | -0.71 | i
CCOc1ccc(-c2noc(CSc3nc4cc(-c5ccccc5)sc4c(=O)n3C)n2)cc1 | -2 | i
CC(C)C(NS(=O)(=O)c1ccccc1)c1nc(-c2ccc3c(c2)Sc2ccccc2C(=O)N3C)no1 (stereo unspecified) | -0.05 | i
